# TRPML1 agonist: qHTS for Agonists of the Human Mucolipin Transient Receptor Potential 1 (TRPML1); 0.12% of 410,000 active; AID 624414, 2012; TRPML1-expressing cells, Ca2+ dye fluorescence, FDSS; host cell line not named in the record; reference of the full effect not given here; activation, % (no concentration beside the values); Mucolipin-1 (Homo sapiens), Q9GZU1; in the data active = activation above about 50%; inconclusive = about 30% to 50%; inactive = below about 30%; note: 0% is about no effect; the text of the record puts the active cut at 80%
# Target sequence (Q9GZU1 whole entry, looked up): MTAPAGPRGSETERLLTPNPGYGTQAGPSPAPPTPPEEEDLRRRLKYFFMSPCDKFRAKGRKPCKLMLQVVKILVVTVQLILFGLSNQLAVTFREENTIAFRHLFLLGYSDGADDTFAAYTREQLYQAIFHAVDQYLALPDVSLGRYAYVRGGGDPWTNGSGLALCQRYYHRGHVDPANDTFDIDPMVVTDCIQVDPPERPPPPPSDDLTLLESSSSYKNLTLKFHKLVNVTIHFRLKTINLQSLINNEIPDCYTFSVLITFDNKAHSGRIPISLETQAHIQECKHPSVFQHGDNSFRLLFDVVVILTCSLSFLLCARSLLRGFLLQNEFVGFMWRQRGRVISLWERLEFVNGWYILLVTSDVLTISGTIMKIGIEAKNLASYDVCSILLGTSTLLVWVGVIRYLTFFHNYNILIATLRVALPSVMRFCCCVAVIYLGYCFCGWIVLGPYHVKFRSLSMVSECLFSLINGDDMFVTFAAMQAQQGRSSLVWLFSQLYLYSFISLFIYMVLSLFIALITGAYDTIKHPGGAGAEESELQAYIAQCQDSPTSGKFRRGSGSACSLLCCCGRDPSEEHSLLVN
#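 TRPML1-DL cells, Tet-induced overnight (~16 h, 37 degrees C), loaded 45-90 min at room temperature with Ca8 no-wash calcium dye plus quencher. FDSS fluorescence: 10 s baseline, compound pin-transfer, 110 s agonist read, then EC80 54-4 (4uM final) and 110 s antagonist read.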
# PINK1 modulator: A Quantitative High throughput Screen to Identify Chemical Modulators of PINK1 Expression; PINK1 immunofluorescence, high-content cytometry, 24 h; Potency, µM (top dose mostly 76.6 µM), inactives show at the top dose activation (PINK1 increase), hits mostly activators; AID 624263, 2012; 0.2% of 410,000 active; active = well fitted activation curve with a large enough effect; inconclusive = small, poorly fitted or top-dose-only effect; inactive = flat fitted curve, though single readings scatter; cell line not stated here;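 note: potency is the fitted concentration of half-maximal effect; % of control where 0% means no effect; nearly all actives have a fitted effect of over 65% in size; a mitochondrial uncoupler was the plate control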
#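 Fluorescence from anti-PINK1 antibody, together with nuclear and cell stains, was scanned on a laser-scanning cytometer. Before staining, stable-line cells were incubated 24 hours with compounds at 5 concentrations; primary antibody 12 h at 10 degrees C.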
# Sfp PPTase inh: qHTS Assay for Inhibitors of Bacillus subtilis Sfp phosphopantetheinyl transferase (PPTase); 3.5% of 310,000 active; 4'-phosphopantetheinyl transferase ffp (Bacillus subtilis), Q9F4F7; Biochemical Sfp PPTase activity, qHTS; Potency, µM, for inactives: max response, negative = inhibition, actives largely listed as inhibitors; active = well fitted inhibition curve with a large enough effect; inconclusive = small, poorly fitted or top-dose-only effect, or another doubt; inactive = no such curve, though single readings can be large or run the other way;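 note: the enzyme is Sfp with the accession as filed and its product quenches rhodamine fluorescence; potency is the fitted concentration of half-maximal effect; 0% = enzyme reaction without inhibitor and -100% = no enzyme wells; top concentration of the series not given in the record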
#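 Step 1, compound plus 15 nM Sfp-PPTase, 15 min, room temperature. Step 2, add rhodamine-CoA (5 uM) and BHQ-2-YbbR (12.5 uM). Step 3, read 525/598 nm fluorescence at 0 and 30 min.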
# Menin MLL FP FL: qHTS Assay for Inhibitors Targeting the Menin-MLL Interaction in MLL Related Leukemias: Competition With Fluorescein Labeled MLL-derived Peptide; Fluorescence polarization, fluorescein-MLL peptide displacement from menin; FP activity change, % at 61.4 µM; 290,000 tested, under 10 active; AID 1766, 2009; inconclusive = falling polarisation curve, or a change in total fluorescence; inactive = total fluorescence flat and polarisation flat or rising; no compound was filed as active; the % refers to the polarisation; negative = inhibition;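 note: % of control where 0% means no effect; inhibitors lower the polarisation; unlabelled MLL peptide was the positive control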
# TRPV1 potentiator: HTS Assay for Compounds that Act as Potentiators of the Vanilloid Receptor 1; Transient receptor potential cation channel subfamily V member 1 (Homo sapiens), Q8NER1; TRPV1-expressing cells, Fluo-8 calcium influx, capsaicin EC20 potentiation; host cell line not named in the record; control for the full effect not named in the record; potentiation, % at 8.33 µM; 0.02% of 320,000 active; AID 540277, 2011; active means potentiation above 80%; inconclusive means 30% to 80%; inactive means below 30%; note: 0% is about no effect
#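 Fluo-8 calcium influx in TRPV1-expressing cells, kinetic read (ex 480/em 520 nm). Compound added and read 3 min for agonist activity, followed by capsaicin at EC20 final and 2 min further read for enhancement.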
# ClpP mod: qHTS Assay for Activators of ClpP; ATP-dependent Clp protease proteolytic subunit (Bacillus subtilis (strain 168)), P80244; Potency, µM (series often up to 57.5 µM), for inactives: at the top dose activity change, negative = active; AID 651965, 2013; purified B. subtilis ClpP, FRET peptide cleavage, 20 min; 1.9% of 340,000 active; active = well fitted falling curve with a large enough effect; inconclusive = small, poorly fitted or top-dose-only effect; inactive = no such curve, though single readings can be large or run the other way; note: potency is the fitted concentration of half-maximal effect; the source files actives as falling curves though it sought activators and does not explain the sign; nearly all actives have a fitted effect of over 65% in size; many hits overshoot -100%
# Target sequence (P80244 whole entry, looked up): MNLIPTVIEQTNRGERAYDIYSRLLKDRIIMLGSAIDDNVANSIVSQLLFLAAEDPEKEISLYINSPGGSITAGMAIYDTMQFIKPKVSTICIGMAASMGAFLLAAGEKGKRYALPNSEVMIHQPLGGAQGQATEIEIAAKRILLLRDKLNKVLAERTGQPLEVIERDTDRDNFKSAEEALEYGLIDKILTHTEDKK
#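 Buffer: 100 mM Tris/HCl pH8, 100 mM KCl, 0.05% low protease BSA, 2.5% glycerol, 0.01% Tween-20. ClpP 10 microg/mL final; 20 min RT; delta FRET normalized to ADEP and DMSO controls.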
# TRPML1 inh: qHTS for Inhibitors of the Human Mucolipin Transient Receptor Potential 1 (TRPML1) | 0.02% of 390,000 active | activity change, negative = inhibition, % (concentration not given with the values) | TRPML1-inducible cells, Ca2+ dye fluorescence, FDSS; active compounds read low; inhibition of EC80 agonist-evoked calcium signal | Mucolipin-1 (Homo sapiens), Q9GZU1 | AID 624415, 2012; in the data active means activity change below about -50%; inconclusive means about -30% to -50%; inactive means above about -30%;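 note: stimulus is agonist 54-4 at its EC80 concentration; % is set by controls: 0 for no effect and ±100 for the full control effect; the text of the record puts the active cut at -80%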
#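 Tet-induced TRPML1-DL cells loaded with Ca8 no-wash calcium dye were read kinetically on FDSS. Compound addition was followed by EC80 agonist 54-4 (4 uM final); inhibition was read over 110 s.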
# Starred values were filed as active, the others as inactive; u = inconclusive; x = not tested or not shown; & = joins results of further samples; [ ] = another dose, or the depositor's remark.
1	Cc1ccc2c(c1)c1c3n2CCCNC3CCC1 (stereo not given)
2	COc1ccccc1NC(=O)CSc1nc2ccccc2c(=O)n1CCNC(C)=O
3	COc1cc2cc(CN(CCN3CCCC3)C(=O)Nc3ccccc3Cl)c(=O)[nH]c2cc1OC
4	O=C(Nc1c(C(=O)N2CCN(c3ccccc3F)CC2)oc2ccccc12)c1ccc(Br)o1
5	CCCCC/C=C/C1=CC(=O)C[C@H](c2ccc(OC)cc2)C1
6	CCCCC(=O)NCCNC(=O)c1cc(OCC(F)(F)F)ccc1OCC(F)(F)F

screen / no. | 1 | 2 | 3 | 4 | 5 | 6
TRPML1 agonist | 0.2 | -0.9 | -0.5 | -0.3 | 1.2 | -0.8
PINK1 modulator | -2.9%[38.3 µM] | 6.2%[38.3 µM] | 3.0% | 0.4% | 9.8% | 6.0%
Sfp PPTase inh | -13% | 12% | -4% | x | x | 16%
Menin MLL FP FL | -1.5 | 4.1 | 7.7 | x | x | 2.3
TRPV1 potentiator | -2 | 4 | -7 | x | -6 | -4
ClpP mod | -29% | -0.1% | 3.2µM* | -8.6% | -1.8% | 6.9%
TRPML1 inh | 8 | 1 | -3 | 9 | 14 | -13

7	Cc1cc(OC(C)C(=O)N(Cc2ccco2)Cc2ccccc2F)cc(C)c1Cl (stereo not given)
8	Cc1ccc(NC(=O)c2ccc3c(c2)CCN3S(C)(=O)=O)cc1
9	Nn1c(Cc2ccccc2)nc2ccccc2c1=O
10	CCCOc1ccc(CNC(=O)C(C)n2nc(C)n3c(cc4occc43)c2=O)cc1 (stereo not given)
11	Cc1cccc(C)c1NC(=O)C1CCCN1S(=O)(=O)c1ccccc1 (stereo not given)
12	O=C(O)CN(CC(=O)O)CC(=O)O

screen / no. | 7 | 8 | 9 | 10 | 11 | 12
TRPML1 agonist | 1.9 | -0.7 | -0.5 | 2.3 | -0.1&2.4 | -0.6
PINK1 modulator | 1.5% | -0.7% | 4.5% | -0.1% | 1.9%&6.3% | 0.2%
Sfp PPTase inh | x | x | x | x | 29% | x
Menin MLL FP FL | x | x | x | x | 1.6 | x
TRPV1 potentiator | x | x | x | x | -4 | x
ClpP mod | -0.8% | -1.9% | -0.3% | -8.4% | 0.8% | 0.0%
TRPML1 inh | 50 | 2 | 6 | -25 | 12&-10 | 4

13	CCn1cc(C(=O)NCCCN(CC(C)C)CC(C)C)c(=O)c2cc(S(=O)(=O)N3CCc4ccccc4C3)ccc21
14	O=C1Nc2ccccc2C1=Nc1ccc(Br)cc1
15	Cc1ccc(NC(=O)c2nc(S(C)(=O)=O)ncc2N(Cc2ccco2)Cc2ccccc2F)c(C)c1
16	CCOC(=O)c1cccc(NC(=O)CC(c2ccc(F)cc2)N2Cc3ccccc3C2=O)c1 (stereo not given)
17	CC(C)(C)CC(C)(C)NCC(O)COc1ccc2c(c1)CCC2 (stereo not given)
18	Cc1cc(C)cc(OC(C)C(=O)Nc2ccc3c(c2)n(C)c(=O)n3C)c1 (stereo not given)

screen / no. | 13 | 14 | 15 | 16 | 17 | 18
TRPML1 agonist | -0.9 | x | 0.7 | 0.4 | 2.9 | x
PINK1 modulator | 3.0% | 0.9% | 1.5% | 4.7% | 6.2% | 4.1%
Sfp PPTase inh | x | -7% | x | x | x | -40%
Menin MLL FP FL | x | 6.5 | x | x | x | -4.3
TRPV1 potentiator | x | 4 | x | x | x | 16
ClpP mod | -2.2% | -0.2% | -6.5% | 4.1% | -0.9% | -2.9%
TRPML1 inh | 6 | x | 55 | -3 | 0 | x

# An excerpt of these results, tab-delimited:
entry	SMILES	TRPML1 agonist	PINK1 modulator	Sfp PPTase inh	Menin MLL FP FL	TRPV1 potentiator	ClpP mod	TRPML1 inh
13	CCn1cc(C(=O)NCCCN(CC(C)C)CC(C)C)c(=O)c2cc(S(=O)(=O)N3CCc4ccccc4C3)ccc21	-0.9	3.0%	x	x	x	-2.2%	6
14	O=C1Nc2ccccc2C1=Nc1ccc(Br)cc1	x	0.9%	-7%	6.5	4	-0.2%	x

# Remaining list, next part
19	CCCC1C(=O)N2C(N(C)C)=Nc3ccc(C)cc3N2C1=O (stereo not given)
20	Cc1cc(C(=O)N/N=C/c2cc(Br)c(Br)o2)n[nH]1
21	COCCCN(C(=O)Cc1coc2cc(C)c(C)cc12)c1c(N)n(Cc2ccccc2)c(=O)[nH]c1=O
22	COc1ccc(C(=O)CN2C(=O)c3ccccc3S2(=O)=O)cc1
23	CCn1cc(CCC(=O)NCCN2CCOCC2)c2ccccc21
24	Cn1cnc(S(=O)(=O)N2CCN(c3ccc(Cl)cc3)CC2)c1

screen / no. | 19 | 20 | 21 | 22 | 23 | 24
TRPML1 agonist | -0.5 | -0.6 | 0.7 | 1.3 | -0.6 | -0.3
PINK1 modulator | 1.3% | 2.2% | -3.7% | 3.3% | -0.9% | 1.1%
Sfp PPTase inh | x | u | x | 19% | 16% | 6%
Menin MLL FP FL | x | 6.4 | x | -0.5 | 7.8 | x
TRPV1 potentiator | -9 | -5 | -5 | -13 | 0 | 0
ClpP mod | 0.0% | x | x | x | -1.8% | 1.0%
TRPML1 inh | 17 | 1 | 18 | 7 | 28 | -1

25	O=C(CCl)NN1C(=O)NC(c2ccccc2)(c2ccccc2)C1=O
26	Cc1ccc(C)c(OC(=O)CSc2nnc(-c3cccs3)o2)c1
27	COc1ccc(-c2cc(C3C4C=CCCC4(C)C(=O)N3Cc3ccccc3)ccc2F)cc1OC (stereo not given)
28	CC1CCC/C(=N/Nc2nc3ccccc3s2)C1 (stereo not given)
29	Cc1ccc(NC(=O)CC2NCCNC2=O)cc1Cl (stereo not given)
30	COc1ccc(NC(=O)N2CCCC(C(=O)Nc3cccc(C)c3C)C2)cc1 (stereo not given)

screen / no. | 25 | 26 | 27 | 28 | 29 | 30
TRPML1 agonist | -0.5 | 6.1 | 2.3 | 1.5 | 0.2 | -0.5
PINK1 modulator | 0.4% | -0.7% | x | 17% | 0.7% | 4.2%
Sfp PPTase inh | -4% | x | u | u | -7% | 11%
Menin MLL FP FL | -0.2 | x | -6.4 | 2.8 | 7.3 | x
TRPV1 potentiator | -2 | x | x | 2 | -4 | -3
ClpP mod | x | 34% | x | -9.0% | -0.5% | x
TRPML1 inh | 10 | 14 | 60 | 10 | -13 | 5

31	COc1ccc(-c2ccc(CN3C(CC(C)C)C(=O)N(Cc4cn(CCC5OCCO5)nn4)CCS3(=O)=O)cc2)cc1OC (stereo not given)
32	Cc1nn(CCOc2ccccc2)c(=O)n1-c1ccc(F)cc1
33	Cc1csc(NC(=O)CSc2nc3nc(C)cc(C)n3n2)n1
34	O=C(NNC1CC(=O)N(c2ccccc2)C1=O)c1ccc(COc2ccccc2Cl)o1 (stereo not given)
35	Cc1noc(C)c1CSc1nnc(-c2ccccc2)n1Cc1ccco1
36	CN(C)/C=C/C(=O)c1ccc([N+](=O)[O-])c(CS(=O)(=O)c2ccc(Cl)cc2)c1
37	COc1cc(C(=O)Nc2ccc3c(c2)OCO3)ccc1-n1cnnn1

screen / no. | 31 | 32 | 33 | 34 | 35 | 36 | 37
TRPML1 agonist | -0.2 | -0.3 | 1.0 | 0.7 | -0.5 | -0.3 | -0.3
PINK1 modulator | 0.0% | 3.0% | 3.1% | 2.1% | -0.2% | 0.1% | 1.8%[38.3 µM]
Sfp PPTase inh | x | -4% | x | 6% | u | 2% | 5%
Menin MLL FP FL | x | -2.2 | x | 1.9 | 5.5 | -2.0 | 0.4
TRPV1 potentiator | x | 7 | 8 | 8 | -12 | 1 | 5
ClpP mod | -4.8% | -0.9% | -3.4% | 1.6% | 1.8% | 0.8% | -1.5%
TRPML1 inh | -5 | -12 | 35 | -4 | 11 | 11 | -1

# Entries listed so far with a Cl atom, in the order listed:
3	COc1cc2cc(CN(CCN3CCCC3)C(=O)Nc3ccccc3Cl)c(=O)[nH]c2cc1OC
7	Cc1cc(OC(C)C(=O)N(Cc2ccco2)Cc2ccccc2F)cc(C)c1Cl (stereo not given)
24	Cn1cnc(S(=O)(=O)N2CCN(c3ccc(Cl)cc3)CC2)c1
25	O=C(CCl)NN1C(=O)NC(c2ccccc2)(c2ccccc2)C1=O
29	Cc1ccc(NC(=O)CC2NCCNC2=O)cc1Cl (stereo not given)
34	O=C(NNC1CC(=O)N(c2ccccc2)C1=O)c1ccc(COc2ccccc2Cl)o1 (stereo not given)
36	CN(C)/C=C/C(=O)c1ccc([N+](=O)[O-])c(CS(=O)(=O)c2ccc(Cl)cc2)c1

screen / no. | 3 | 7 | 24 | 25 | 29 | 34 | 36
TRPML1 agonist | -0.5 | 1.9 | -0.3 | -0.5 | 0.2 | 0.7 | -0.3
PINK1 modulator | 3.0% | 1.5% | 1.1% | 0.4% | 0.7% | 2.1% | 0.1%
Sfp PPTase inh | -4% | x | 6% | -4% | -7% | 6% | 2%
Menin MLL FP FL | 7.7 | x | x | -0.2 | 7.3 | 1.9 | -2.0
TRPV1 potentiator | -7 | x | 0 | -2 | -4 | 8 | 1
ClpP mod | 3.2µM* | -0.8% | 1.0% | x | -0.5% | 1.6% | 0.8%
TRPML1 inh | -3 | 50 | -1 | 10 | -13 | -4 | 11
